# VDR inh: blocks the human vitamin D receptor; 0.93% of 400,000 active; P11473; Potency, µM, for the others: max response, negative = inhibition, usual class: inhibitors; VDR-SRC2-3 peptide fluorescence polarization, 2 h; active means well fitted inhibition curve with a large enough effect; inconclusive means small, poorly fitted or top-dose-only effect, or another doubt; inactive means no such curve, though single readings can be large or run the other way; further: series mostly up to about 120 µM
# Target sequence (P11473 whole entry, looked up): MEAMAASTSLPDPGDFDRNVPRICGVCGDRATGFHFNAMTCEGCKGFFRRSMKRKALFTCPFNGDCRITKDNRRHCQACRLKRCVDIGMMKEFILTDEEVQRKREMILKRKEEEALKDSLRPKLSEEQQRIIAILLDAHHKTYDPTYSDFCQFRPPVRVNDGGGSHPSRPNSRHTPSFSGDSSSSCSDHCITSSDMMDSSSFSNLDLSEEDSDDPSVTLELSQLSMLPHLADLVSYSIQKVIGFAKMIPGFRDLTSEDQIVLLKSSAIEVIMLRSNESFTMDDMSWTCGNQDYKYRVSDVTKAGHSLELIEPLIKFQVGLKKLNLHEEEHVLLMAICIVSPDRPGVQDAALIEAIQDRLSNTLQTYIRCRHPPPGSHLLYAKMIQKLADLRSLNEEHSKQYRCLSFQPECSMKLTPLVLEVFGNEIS
#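 After 23 nl compound addition and a short centrifugation, plates sat for 2 hours at ambient temperature; polarization of fluorescence then indicated loss of VDR binding to peptide SRC2-3.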
# * = called active by the depositor; ? = inconclusive; & = joins results of further samples. On the % scale 0 is the no-effect control and ±100 the full control effect; potency means the concentration at half of the fitted maximal effect.
Structure | VDR inh
O=C(Oc1cccc(/C=N/Nc2nc(N3CCOCC3)nc(N3CCOCC3)n2)c1)c1ccco1 | 13.6%
COc1cc(C(=O)Nc2nc(-c3ccc(Cl)cc3)c(C)s2)ccc1OCC(=O)Nc1ccc(F)cc1 | -10.1%
Cc1[nH]nc(SCC(=O)Nc2cccc(O)c2)c1[N+](=O)[O-] | 9.6%
O=C(NCCC1=CCCCC1)c1cnc2n(c1=O)CCS2 | -5.4%
CCOC(=O)Cc1csc(NC(=O)/C=C/c2ccccc2Cl)n1 | -14.1%
O=C(O)CC1=C(O)C(=O)N(c2ccccc2)C1c1ccc(Cl)cc1 (centres undefined) | 16.4%
CCCc1cc(OC)c2c(c1)OCO2 | ?
CCC(C)[C@H](NC(=O)Nc1ccc2c(c1)OCCO2)C(=O)O (some centres undefined) | 21.7%
Cc1cc(C(=O)OCC(=O)Nc2cccc(S(=O)(=O)N(C)C)c2)c(C)o1 | -22.3%
Cc1cc(C)n(CC(=O)NC2CCCCC2)n1 | -1.4%
FC(F)(F)c1nnc(-c2ccccc2)nc1N1CCOCC1 | -0.6%
Cc1cc(CN(C)C(=O)CC2C(=O)NCCN2Cc2c(F)cccc2Cl)on1 (centres undefined) | -13.8%

# The last 3 records of the section before are carried over, then new ones follow:
Structure | VDR inh
Cc1cc(C)n(CC(=O)NC2CCCCC2)n1 | -1.4%
FC(F)(F)c1nnc(-c2ccccc2)nc1N1CCOCC1 | -0.6%
Cc1cc(CN(C)C(=O)CC2C(=O)NCCN2Cc2c(F)cccc2Cl)on1 (centres undefined) | -13.8%
O=C(OCn1nnc2ccccc2c1=O)c1ccc2c(=O)n3c(nc2c1)CCC3 | -2.7%
COc1ccc(CN(C2CCCC2)S(=O)(=O)c2ccc(-n3cnnn3)cc2)cc1OC | 10.5%
O=C(c1ccccc1Br)N1CCN(c2ccccn2)CC1 | -17.3%
COc1ccc(-n2c(CNC(=O)COc3ccccc3)n[nH]c2=S)cc1 | 0.2%
COc1ccc(-c2ccc(SCC(=O)N3CCN(c4ccccc4)CC3)nn2)cc1 | -10.6%
COc1ccc(S(=O)(=O)N2CCc3ccccc32)cc1C(=O)N1CCOCC1 | 0.4%
NC(=S)N/N=C1\CCOc2ccc(Cl)cc21 | -2.5%
Cc1cc(NS(=O)(=O)c2ccc(Nc3nc(-c4sc(N)nc4C)cs3)cc2)no1 | ?
CCOC(=O)c1cc(S(=O)(=O)NCc2ccccc2)[nH]n1 | 12.0%
Cc1cccc(C)c1NC(=O)C1CCN(S(C)(=O)=O)CC1 | -6.9%
COc1cccc(CN(Cc2cccnc2)S(=O)(=O)c2ccc(-n3cnnn3)c(C)c2)c1 | 3.3%
Cc1cc(C)c2oc(-c3ccc(C)c(NC(=O)/C=C/c4ccco4)c3)nc2c1 | ?

# Overlap with the part before: two entries, then new ones.
Structure | VDR inh
COc1cccc(CN(Cc2cccnc2)S(=O)(=O)c2ccc(-n3cnnn3)c(C)c2)c1 | 3.3%
Cc1cc(C)c2oc(-c3ccc(C)c(NC(=O)/C=C/c4ccco4)c3)nc2c1 | ?
CCOc1ccc(N(CC(=O)NC2CCCCC2)C(=O)CSc2nnc(COc3ccccc3)o2)cc1 | 7.3%
O=C(Cn1cncc1-c1ccc([N+](=O)[O-])cc1)Nc1cccc2ccccc12 | -7.5%
Cc1cc(C)cc(NC(=O)N2C3CCCC2CC(NC(=O)C2CC2)C3)c1 (centres undefined) | -8.0%
COCC(=O)N1CCc2ccc(NC(=O)c3ccccc3Cl)cc2C1 | 4.2%
C=CCNC(=S)Nc1ccc(N2CCOCC2)c(S(=O)(=O)Nc2ccccc2Cl)c1 | -16.8%
O=C(CNC(=O)c1ccco1)OCC(=O)c1ccc2ccccc2c1 | 26.4%
C=CCOc1ccc(CN(C)CC(=O)Nc2ccccc2[N+](=O)[O-])cc1 | 3.3%
COc1ccc(CNC(=S)Nc2ccc(-c3ccccc3)cc2)cc1 | -25.4%
O=Cc1c[nH]c2ccccc12 | -10.1%
CC[C@]12c3[nH]c4cc(CCC(=O)N(C)C)ccc4c3CCN1C(=O)[C@@H](CC(=O)NCCCOC)C[C@@H]2C(=O)N1CCN(C(=O)C2CC2)CC1 | ?
CCCc1cc(Nc2cccc(OCC)c2)n2ncnc2n1 | 4.0%
Cc1ccc(S(=O)(=O)N(C)c2ccc(C(=O)N3CCN(Cc4ccc5c(c4)OCO5)CC3)cc2)cc1 | 16.1%

# The listing continues.
Structure | VDR inh
C=CCOc1cccc(NC(=O)c2ccccc2SC)c1 | -18.7%
CCOc1cc(C)c(S(=O)(=O)NCCCn2ccnc2)cc1C | 1.2%
Clc1ccc(Oc2cnc3ccccc3n2)cc1 | -4.1%
Cc1cc(C(=O)OCC(=O)NCCCN2CCCC2=O)c2ccccc2n1 | -1.5%
Cc1ccc(C(=O)NC(=S)Nc2ccc(N3CCN(C(=O)c4ccco4)CC3)cc2)cc1 | -11.1%
Cc1ccc(-c2cc(C(=O)N3CC(C)OC(C)C3)c3ccccc3n2)o1 (centres undefined) | -10.1%
COc1ccc(C2c3c(n(C)c4ccccc34)C(=O)N2CC(=O)Nc2ccc(C)c(Cl)c2)cc1 (centres undefined) | 4.5%
Cc1ccc2nc(N3C(=O)C(O)=C(C(=O)c4ccc(C)o4)C3c3ccc(O)cc3)sc2c1 (centres undefined) | ?
O=C(COc1ccc(Cl)cc1Cl)Nc1c(-c2cccs2)nc2ccccn12 | 19.6%
Cc1ccc(S(=O)(=O)N2CCN(C(=O)NCc3ccc(C(=O)O)cc3)CC2)cc1 | 7.2%
Cc1ccc(-c2nn(-c3ccccc3)cc2NC(=O)c2ccccc2)cc1 | -16.8%
COc1ccc(OC(=O)c2cccc(S(=O)(=O)N3CCCC3)c2)cc1 | -3.9%

# Later entries:
Structure | VDR inh
C/C(=N\NC(=O)c1cccc(S(=O)(=O)N2CCOCC2)c1)c1ccc(O)cc1 | 13.4%
CCOc1ccc(NC(=O)N(CCC(C)C)C2CCN(C(C)=O)CC2)cc1 | -12.6%
CC(C)C[C@@H](C(=O)NCc1ccco1)N1C(=O)N2CCc3c([nH]c4ccccc34)[C@@]2(C)C1=O | -18.0%
Cc1ccc(/C=C/c2onc(C)c2S(=O)(=O)N2CCC(C(=O)Nc3cc(F)ccc3F)CC2)cc1 | 7.6%
Nc1cc(=O)[nH]c(SCC(=O)Nc2ccc3c(c2)CCC3)n1 | 2.1%
O=C(CSc1nnc(-c2ccc(Br)cc2)n1C1CCCCC1)N1CCCC1 | -10.2%
CC(C)(C)c1ccc(/C=C2\Oc3cc(OC(=O)N4CCOCC4)ccc3C2=O)cc1 | -19.7%
COc1cc2oc(-c3ccc(O)cc3)cc(=O)c2c(O)c1OC | -5.0%
COc1ccc(C(=O)CSc2nc(SC)ns2)cc1OC | 10.8%
Fc1ccc(-c2cc(C(F)(F)F)nc(-n3cccn3)n2)cc1 | -2.9%
Fc1cnc(Cl)nc1NC1CCCCC1 | ?
CCOc1cc2c3c(c1)C1(Nc4ccccc4S1)C(=O)N3C(C)(C)CC2C (centres undefined) | -9.3%

# Continued.
Structure | VDR inh
CCOc1cc(/C=C2\C(=N)N3N=C(C)SC3=NC2=O)ccc1OCCOc1cccc(OC)c1 | 4.1%
COC(=O)c1ccc(C(=O)OC)c(NC(=O)CCC(=O)O)c1 | -4.1%
COC(=O)C[C@H]1c2ccccc2S(=O)(=O)N1c1cccc(OC)c1 | -12.1%
COc1ccc(NC(=O)C#Cc2ccccc2)cc1 | -20.5%
Cc1ccc(N2C(=O)C3Sc4[nH]c(=O)sc4C(c4ccccc4)C3C2=O)cc1 (centres undefined) | -15.0%
O=C(N/N=C1\CCS(=O)(=O)c2ccc(F)cc21)c1ccc(O)cc1 | 20.7%
COc1ccc(C(=O)/C=C/Nc2ccccn2)c(OC)c1 | -5.0%
Cc1ccc(Nc2cc(C)nc3nncn23)c(C)c1 | 4.2%
Cc1ccc2c(c1)c(CC(NC(=O)c1ccccc1Oc1ccccc1)C(=O)O)cn2C(=O)OCc1ccccc1 (centres undefined) | 31.6µM*
CCCc1ccc(S(=O)(=O)N2CCN(C(C)C(=O)NC3CCCC3)CC2)cc1 (centres undefined) | -5.3%
N#Cc1ccc(C(=O)Nc2cccc(S(=O)(=O)NC3=NCCC3)c2)cc1 | 10.5%
c1ccc2c(c1)ncn2Cc1nnc2sc(-c3ccc4c(c3)OCO4)nn12 | -8.6%

# Remaining list, next part.
Structure | VDR inh
CCOc1ccc(NC(=O)C2=C(C)C(=O)OC23CCC(C)CC3)cc1 (centres undefined) | -4.9%&3.1%
O=C(c1cccc(C(F)(F)F)c1)C1CCCN(C(=O)CN2CCCC2=O)C1 (centres undefined) | 5.8%
O=C(NCC1CCCN(C(=O)CN2CCCCC2)C1)c1ccccc1Cl (centres undefined) | 9.8%
COC(=O)Cc1c[nH]c2ccc(OCC(O)CNC(C)C)cc12 (centres undefined) | -9.2%
O=C(Nc1cccc(NC(=O)c2ccc(Br)cc2)c1)c1ccccc1 | -3.5%&-8.4%
O=C(Nc1cc(C(F)(F)F)ccc1N1CCCCC1)c1ccc(Br)o1 | -3.7%
CCCCN(C(=O)CCC(=O)Nc1cc(C)on1)C(C(=O)NC(C)(C)C)c1ccccc1Cl (centres undefined) | -8.0%
CCCCC/C=C\C/C=C\C/C=C\CCCCCCC(=O)O[C@H](COCCCCCCCCCCCCCCCC)COP(=O)([O-])OCC[N+](C)(C)C | -16.0%
Cc1ccc(CN(Cc2ccco2)C(=O)COc2ccccc2C)cc1 | 8.3%
Cc1ccc(C(=O)Nc2nnc(S(=O)(=O)N3CCC(C)CC3)s2)cc1 | 13.9%
CCOc1ccc(N2CSC(=S)N(c3ccc(OCC)cc3)C2)cc1 | -2.7%
CCN1CCN(C(c2ccc(Cl)cc2)c2c(O)cc(C)n(CCOC)c2=O)CC1 (centres undefined) | -14.1%

# (continued)
Structure | VDR inh
Cc1ccc(C)c(S(=O)(=O)N2CCN(CC(=O)N3CCc4ccccc4C3)CC2)c1 | 21.6%
CCOC(=O)c1cnc(SCC(=O)N2CCN(C(=O)c3ccco3)CC2)nc1N | -13.1%
COc1ccccc1OCCNC(=O)CC(NC(C)=O)c1ccccc1 (centres undefined) | -0.8%
CC(C)c1ccc(OCc2ccc(C(=O)N3CCN(c4ccccn4)CC3)cc2)cc1 | -2.2%
CCOC(=O)c1ccc(NC(=O)NC2CC3CCC(C2)N3)cc1 (centres undefined) | -16.5%
CC1CCN(C(=O)c2cccc(NC(=O)c3nsc4ccccc34)c2)CC1 | 14.1%
CCN(CC)S(=O)(=O)c1cccc(NC(=O)COc2ccc(F)cc2Br)c1 | -6.3%
O=C(O)c1ccc(CNCc2cccc(Cl)c2)cc1 | -11.8%
O=C(Nc1ccc2oc(-c3ccccc3F)nc2c1)c1ccc2c(c1)OCCO2 | -0.1%
O=C(Cn1c(C2CC2)nc2ccccc2c1=O)Nc1ccc(Br)cc1 | -8.2%
O=C(Cc1ccccc1)Nc1sc2c(c1C(=O)Nc1ccccc1Cl)CCCCC2 | -1.6%
O=S(=O)(Cc1ccccc1)c1nc2ccccc2n1Cc1ccccn1 | -10.0%

# (list continues)
Structure | VDR inh
CC1CC1C(=O)OCc1cc(=O)n2cc(Br)ccc2n1 (centres undefined) | -11.8%
Cc1ccc(NC(=O)CSc2nnc([C@H](C)NC(=O)OC(C)(C)C)o2)c(C)c1 | 4.3%
CCNC(=O)NC(=O)C(C)OC(=O)[C@H](C)NS(=O)(=O)c1c(C)c(C)cc(C)c1C (some centres undefined) | 12.0%
CCN(CC(=O)Nc1cccc(C(C)=O)c1)S(=O)(=O)c1ccccc1 | 5.9%
COCCOC(=O)c1c(C)nc(SCC(=O)Nc2ccc(OC)cc2)c(C#N)c1-c1ccco1 | -11.6%
COc1ccc(CNC(=O)C(C)NCc2ccc(S(N)(=O)=O)cc2)cc1 (centres undefined) | 0.8%
O=C(NCC1CCCO1)c1ccc(OC2CCN(C(=O)C3CC3)CC2)cc1 (centres undefined) | 1.0%
Nc1[nH]c(=S)nc2nc(-c3ccccc3)c(-c3ccccc3)nc12 | ?
CNc1nc(N)nc(OC(C(F)(F)F)C(F)(F)F)n1 | -1.8%
COc1ccc(C(=O)Nc2ccc3c(c2)N(C2CCCC2)C(=O)c2ccccc2S3)cc1OC | 1.5%
O=C(NCCc1ccc(Cl)cc1)Nc1ccc(F)cc1 | -11.8%
CN(C)c1nc(N)nc(CSc2ccccn2)n1 | -4.9%

# Next part.
Structure | VDR inh
Cc1ccc(NC(=O)CSC(C)c2nc3ccccc3c(=O)[nH]2)cc1 (centres undefined) | -3.9%
Cn1c(-c2ccccc2)c[n+]2c1CCCCC2 | -8.5%
CCN1CCN(CCNC(=O)c2ccc3c(c2)N(Cc2cccc(Cl)c2)C(=O)c2ccccc2S3=O)CC1 (centres undefined) | 10.8%
CCN(CC)CCNC(=O)Cn1ncc2c([nH]c3ccccc32)c1=O | 4.6%
NS(=O)(=O)c1cccc(NC(=O)CC23CC4CC(CC(Br)(C4)C2)C3)c1 | -11.9%
NC(=O)c1ncn([C@@H]2O[C@H](CNCc3ccccc3C#Cc3ccccc3)[C@@H](O)[C@H]2O)n1 | -3.1%
CCCCCN(C(=O)COC(=O)c1ccc(C)cc1)c1c(N)n(CCCC)c(=O)[nH]c1=O | -2.0%
O=c1[nH]cnc2c1N=C(c1cccc([N+](=O)[O-])c1)CC(c1ccccc1)N2 (centres undefined) | ?
Cc1ccccc1CNC(=O)c1ccc(-n2c(C)cc3c2CCCC3)cc1 | 14.8%
COc1ccc(C)cc1NC(=O)COC(=O)C1COc2ccccc2O1 (centres undefined) | -13.0%
Cc1ccccc1CN1CCN(C(=O)CC(C)C)CC1 | 6.1%
CC1(C)SC2C(NC(=O)C(NC(=O)N3CCNC3=O)c3ccccc3)C(=O)N2C1C(=O)O (centres undefined) | 4.4%
Cc1ccc(S(=O)(=O)NCC(c2ccccc2)N2CCN(CCC#N)CC2)cc1 (centres undefined) | 6.5%
O=S(=O)(Nc1nc2ccccc2nc1NCc1ccco1)c1ccc(Cl)cc1 | -1.0%
Cc1ccc2c(c1)NC(c1cccnc1)=NC(c1ccc(F)cc1)=N2 | -3.3%

# Screening data (PubChem)

# A portion of the library (hit frequency here may not be typical).
